# Bioassay records as filed in PubChem BioAssay.
# AID923: qHTS Assay for Allosteric/Competitive Inhibitors of Caspase-1: Spectroscopic Profiling in AFC Spectral Region. compound fluorescence, AFC spectral region (405/520 nm); almost no hit is shown here. 75,000 compounds, 1.1% hits. Potency, µM (doses to about 57.5 µM), for inactives: top-dose fluorescence increase, hits mostly activators; active means well fitted activation curve with a large enough effect; inconclusive means small, poorly fitted or top-dose-only effect;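 further: potency means the concentration at half of the fitted maximal effect; 0% is about no effect; scaled to a free AFC standard on each plate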
#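 Compound autofluorescence profiled at 405 nm ex/520 nm em during kinetic caspase 1 run (50 nM enzyme, 5 uM Ac-WEHD-AFC, HEPES pH 7.5, 10 mM DTT). Titration up to 57 uM; baseline from regression intercept, normalized to AFC standard curve.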
# TSHR agonist: activates the human thyroid stimulating hormone receptor; HEK293-CNG-TSHR cells (CNG channel as cAMP sensor), membrane potential dye, cAMP; Potency, µM (series often up to 57.1 µM), without a hit: at the top dose activation, most hits filed as activators; 73,000 compounds, 0.48% hits; active = well fitted activation curve of enough size with the parental cells flat; inconclusive = any curve in the parental cells; inactive = parental cells flat and receptor cells flat or falling; further: potency means the concentration at half of the fitted maximal effect; % of control where 0% means no effect; weak receptor curves with flat parental cells got no call and are not listed
# Target sequence (P16473 whole entry, looked up): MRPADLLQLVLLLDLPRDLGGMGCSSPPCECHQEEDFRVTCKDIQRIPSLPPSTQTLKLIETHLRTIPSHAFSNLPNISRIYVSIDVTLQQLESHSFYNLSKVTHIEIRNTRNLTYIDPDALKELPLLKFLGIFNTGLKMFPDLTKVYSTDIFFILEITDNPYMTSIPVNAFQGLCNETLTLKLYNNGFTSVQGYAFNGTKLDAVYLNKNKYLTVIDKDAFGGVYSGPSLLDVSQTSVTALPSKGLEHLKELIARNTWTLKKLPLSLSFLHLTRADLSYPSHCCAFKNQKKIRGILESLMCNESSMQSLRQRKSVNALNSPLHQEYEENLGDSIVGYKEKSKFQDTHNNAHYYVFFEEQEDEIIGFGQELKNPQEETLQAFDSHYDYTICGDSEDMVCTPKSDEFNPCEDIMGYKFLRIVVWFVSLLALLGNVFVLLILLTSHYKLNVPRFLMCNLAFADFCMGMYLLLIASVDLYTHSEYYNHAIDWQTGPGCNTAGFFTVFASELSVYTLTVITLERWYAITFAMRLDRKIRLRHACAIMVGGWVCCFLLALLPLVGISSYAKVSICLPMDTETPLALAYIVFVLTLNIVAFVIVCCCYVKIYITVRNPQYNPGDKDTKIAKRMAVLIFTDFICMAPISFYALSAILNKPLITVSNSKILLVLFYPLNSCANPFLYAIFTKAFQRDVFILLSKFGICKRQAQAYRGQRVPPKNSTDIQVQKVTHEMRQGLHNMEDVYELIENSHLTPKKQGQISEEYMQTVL
#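 HEK 293 cells stably expressing TSHR and a modified CNG channel, with CNG-only parental cells as counterscreen, were preloaded 60 min at room temperature with membrane potential dye containing 100 uM RO 20-1724. Compound exposure was 30 min, and depolarization was read as fluorescence at 590 nm.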
# A488 fluor: compound fluoresces in the A488 spectral region; compound autofluorescence, A488 spectral region, dye equivalency; active compounds read high; max dye equivalency, M; 59,000 compounds, 0.1% hits; active = above 10 nM dye equivalent; inconclusive = 1 to 10 nM; inactive = 1 nM or less; about half of its hits are not listed in these tables;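 further: highest value over a series up to 38 µM; compound alone in buffer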
#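 Autofluorescence read at ex 480/em 540 nm after 15 min RT in 100 mM Tris pH 8.0; compound signal normalized to A488 standard series on each plate, reported as dye-equivalent concentration at each test concentration.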
# A647 autofl: compound autofluorescence in A647 spectral region; max dye-equivalent concentration, M; Compound fluorescence, A647 channel (570/671 nm), Tris buffer; AID 592; 59,000 tested, under 10 active; active means above 1 µM dye equivalent; inconclusive means 0.1 to 1 µM; inactive means 0.1 µM or less;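 further: values scaled relative to a standard on each plate; highest value over a series up to 38 µM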
#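 Tris 100 mM pH 8.0; cpd + A647 stds pin-transferred; 15 min RT; CCD imager, ex 570/em 671. Output = A647-equivalent conc. per cpd conc.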
# Resorufin autofl: compound fluoresces in the resorufin spectral region. AID 588. 59,000 compounds, 0.04% hits. Compound fluorescence, resorufin region 547/598 nm, buffer; active compounds read high. max dye-equivalent concentration, M; active = above 10 nM dye equivalent; inconclusive = 1 to 10 nM; inactive = 1 nM or less; a few of its hits are not listed in these tables; further: highest value over a series up to 38 µM
#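 Intrinsic fluorescence profiled in the resorufin window (ex 547 nm, em 598 nm) after 15 min at room temperature in pH 8.0 Tris buffer (100 mM); responses normalized against a six-point resorufin standard series as dye-equivalent concentration.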
# * hit, by the source's call; i = inactive; u = inconclusive; x = no result given; & = joins results of further samples; [ ] = dose if it differs, or a comment. This is a subset, so the mix of outcomes need not match the whole.
# The line under a structure holds: AID923, TSHR agonist, A488 fluor, A647 autofl, Resorufin autofl
- CCN(Cc1ccccc1)C(c1cccc(C#N)c1)c1nnnn1C(C)(C)C (centres undefined)
 : -1.4%, u, i, 1e-09, i
- CCOC(=O)N1CCN(C(=O)c2ccc(N3C(=O)CCC3=O)cc2)CC1
 : -0.5%, -1.3%[11.4 µM], i, 1e-09, i
- CCOC(=O)N1CCC(n2c(SCC(=O)NCc3ccccc3)nc3ccccc3c2=O)CC1
 : 0.0%, x, i, 2.57e-08, i
- C=CCn1c(SCC(N)=O)nc(C)cc1=O
 : -1.1%, x, i, 4e-09, i
- CC(=O)c1cccc(NC(=O)CCNS(=O)(=O)c2cccc3nsnc23)c1
 : -1.3%, -2.6%, i, 3e-09, i
- COc1ccc(Cl)cc1S(=O)(=O)N1CCN=C1C
 : -3.2%, -3.9%, x, x, x
- COc1ccc(-c2nn(C)c3sc(C(=O)N4CCOCC4)cc23)cc1OC
 : -1.5%, 6.9%, i, 1e-09, i
- COc1cc2c(cc1OC)-c1cc(Nc3ccc4c(c3)OCCO4)nc(=O)n1CC2
 : 2.1%, x, i, 3.23e-08, i
- CCCOc1cccc(NC(=O)c2c(-c3ccccc3)noc2C)c1
 : -0.4%, u, i, 3.24e-08, i
- COc1ccc(C)cc1NC(=O)c1ccc(S(=O)(=O)N2CCOCC2)cc1
 : -3.0%, 9.7%, i, 1.19e-08, i
- CC[C@H](C)[C@H](NS(=O)(=O)c1ccc(C)cc1)C(=O)N1CCC(C(=O)N[C@H](C(=O)O)C(C)C)CC1
 : -0.2%, 1.6%, i, 1e-09, i
- Cc1cc(C(F)F)n2nc(C(=O)Nc3cc(C)on3)nc2n1
 : -0.3%, -2.9%, i, 7.9e-09, i
- CCc1ccc(-c2nc(CN3CCCC(C(=O)O)C3)c(C)o2)cc1 (centres undefined)
 : -0.5%, -2.2%, x, x, x
- CC(=O)N1CCN(C(=O)c2cccc(S(=O)(=O)Nc3ccc(C)cc3)c2)CC1
 : -1.1%, -4.6%, i, 1.31e-08, i
- CCN(CC)CCCN1C(=O)C(O)=C(C(C)=O)C1c1cccc(OC)c1 (centres undefined)
 : -0.2%, -0.3%, i, 1.1e-09, i
- COc1ccc(N2CCN(CCNC(=O)CCNS(=O)(=O)c3cccs3)CC2)cc1
 : 1.4%, 13.9%[11.4 µM], i, 1e-09, i
- Cc1ccc(-c2noc(CCC(=O)NCCCN3CCN(c4cccc(Cl)c4)CC3)n2)cc1
 : -2.5%, u, i, 1.11e-08, i
- CCOC(=O)C1CCCN(c2cc(=O)n(Cc3ccc(F)cc3)c(=O)[nH]2)C1 (centres undefined)
 : 0.1%, 3.7%[11.4 µM], i, 4.34e-08, i
- CC(C)(C)c1cc(C(=O)NCc2ccccc2)ccn1
 : 4.1%, 18.1%, x, x, x
- CC(C)C12CC[C@@]3(CC[C@H]4[C@@](C)(CCC[C@]4(C)C(=O)O)[C@@H]3C1)[C@@H](CN)C2
 : -4.0%[11.5 µM], 3.6%[11.4 µM], i, 2.18e-08, i
- N#CCCN(Cc1cccnc1)S(=O)(=O)c1ccc(S(=O)(=O)NC2CCCCC2)cc1
 : -0.5%, -1.9%, i, 2.94e-08, i
- O=C(NCc1cccnc1)c1ccc(CS(=O)(=O)c2ccc(Cl)cc2)o1
 : -0.3%, -0.1%[11.4 µM], i, 1.44e-08, i
- CCOCCCn1c(=N)c(C(=O)NCc2ccc3c(c2)OCO3)cc2c(=O)n3ccccc3nc21
 : 14.7%, u, i, 1e-09, i
- N#Cc1c(N)c(C#N)c(-c2ccc3c(c2)OCO3)c2c1CCCC2
 : 1.1%, 15.2%[11.4 µM], x, x, x
- Cc1cc(NC(=O)CSCc2nc(-c3cccc(Cl)c3)oc2C)no1
 : -0.2%, u, x, x, x
- CN(C)C(CNC(=O)c1cccnc1Sc1ccccc1)c1ccco1 (centres undefined)
 : 0.8%, 5.2%[11.4 µM], i, 3.71e-08, i
- CCC(C)NC(=O)Cn1c(=O)n(CCCCC(=O)NCc2ccco2)c(=O)c2ccccc21 (centres undefined)
 : 1.5%, x, i, 1e-09, i
- c1ccc2c(c1)nnn2-c1ncnc2sc3c(c12)CCCC3
 : -2.5%, u, i, 2.08e-08, i
- C/C(CCN1CCc2nc(-c3ccccc3)c(-c3ccccc3)cc2C1)=N\O[C@@H](C)c1cn([C@H](CO)Cc2ccccc2)nn1
 : 0.9%&-1.8%[11.5 µM], 5.6%&-10.7%[11.4 µM], x, x, x
- Cc1cc(C(C)c2ccccc2)c(O)c(CN2CCOCC2)c1C (centres undefined)
 : 0.6%, x, i, 1.69e-08, i
- COC(=O)CSc1nc2nc(C)cc(C)n2n1
 : -0.9%, -1.0%, x, x, x
- O=C(O)c1cccc(OCc2ccccc2Cl)c1
 : -0.8%, 15.5%, i, 2.6e-09, i
- Cc1ccccc1-n1c(SCC(=O)c2cc(C)n(C)c2C)nnc1-c1ccncc1
 : 4.4%, 4.5%, i, 1.7e-09, i
- O=C(Nc1ncc(Cc2ccccc2)s1)C1CCCO1 (centres undefined)
 : -2.1%, -13.9%, x, x, x
- O=C(COc1cccc2cccnc12)N1CCc2ccccc2C1
 : -1.1%, 3.6%, i, 1e-09, i
- c1ccc(COc2ccc(OCCCn3cncn3)cc2)cc1
 : -1.6%, 6.4%, i, 1e-09, i
- Cc1ccc(C(=O)/C=C/Nc2ccccn2)cc1
 : x, x, i, 5.6e-09, i
- CCOC(=O)Cn1c(=O)oc2cc(S(=O)(=O)NCCc3ccc(C)cc3)ccc21
 : 0.0%, 10.1%[11.4 µM], x, x, x
- COC(=O)[C@@]1(Cc2ccc(F)cc2)[C@H]2c3cc(C(=O)N4CCCC4)n(Cc4ccc(S(C)(=O)=O)cc4)c3C[C@H]2CN1C(=O)c1ccccc1
 : -2.4%, u, x, x, x
- CCc1nnc(NC(=O)c2ccc(S(=O)(=O)N(CC)CC)cc2)s1
 : 14.9%, 2.4%, x, x, x
- Cc1noc(NS(=O)(=O)c2ccc(NC(=O)CSc3nc4ccccc4s3)cc2)c1C
 : -0.7%, 1.6%, i, 1e-09, i
- O=c1[nH]c2c(s1)C=Nc1ccccc1N2
 : 6.2%, 13.0%, x, x, x
- CCC(C)(C)n1nnnc1C(c1cc2ccc(C)cc2[nH]c1=O)N(Cc1cccnc1)Cc1ccco1 (centres undefined)
 : 3.5%, 2.4%[11.4 µM], i, 1.18e-08, i
- COc1cccc(CNC(=O)c2ccc(NC(=O)C3CCCO3)cc2)c1 (centres undefined)
 : -0.5%, 0.3%[11.4 µM], i, 3.3e-08, i
- Nc1c(C(=O)NC2CCCC2)c2nc3ccccc3nc2n1/N=C/c1cccnc1
 : 8.9%, u, i, 2.02e-08, i
- CN(C)c1ncc2nc(CCc3ccccc3)c(=O)n(CCc3ccccc3)c2n1
 : 8.4%, u, i, 1e-09, i
- O=C(CC(C(=O)O)N1CCOCC1)Nc1ccc(Cl)cc1 (centres undefined)
 : 1.9%, -1.5%, i, 1e-09, i
- Cn1c(C(=O)N(Cc2ccccc2)Cc2cccs2)cc2sccc21
 : -0.3%, u, i, 2.3e-09, i
- COc1ccc(NC(=O)Nc2nnc(C(C)C)s2)cc1
 : -0.4%, x, i, 2.76e-08, i
- CCc1nc(SCC(=O)Nc2cc(C)on2)c2c(=O)n(C)c(=O)n(C)c2n1
 : 3.5%, -1.5%[11.4 µM], x, x, x
- Cc1onc(-c2ccccc2Cl)c1C(=O)Nc1ccc(F)c(F)c1
 : 0.4%, -0.7%, i, 5.2e-09, i
- O=C(Cn1ncc2c(=O)oc3ccccc3c21)N1CCc2ccccc2C1
 : 2.1%, 8.1%, x, x, x
- CCOC(=O)C1CCN(c2c(NCc3ccc(C(=O)NC(C)CC)cc3)c(=O)c2=O)CC1 (centres undefined)
 : -1.2%, -1.6%, i, 2.89e-08, i
- CCOCCOc1nc2c(c(=O)n(C)c(=O)n2C)n1Cc1ccc(C)cc1
 : -0.1%, -10.2%, x, x, x
- COc1ccc(NC(=O)CN2CCN(c3ccc(Cl)cc3)CC2)c(OC)c1
 : -0.4%, u, i, 2.98e-08, i
- Cc1cccc(C)c1OC[C@@H](N)C(C)C
 : 0.9%, -3.5%, i, 1e-09, i
- CCCn1nc(C(=O)NCCc2ccc(S(N)(=O)=O)cc2)c2ccccc2c1=O
 : -1.3%, 6.6%, i, 2.88e-08, i
- C=Cc1c(C)c2cc3nc(cc4[nH]c(cc5nc(cc1[nH]2)C(C)=C5CCC(=O)O)c(CCC(=O)OC)c4C)[C@@]1(C)C3=CC=C(C(=O)OC)[C@H]1C(=O)OC (tested in a mixture with another compound)
 : -1.3%[25.7 µM], -6.9%[25.6 µM], i, 9.8e-09, i
- COc1ccc(N2CCN(C(=O)CSc3nc4c(c(=O)n(C)c(=O)n4C)n3C(C)C)CC2)cc1
 : 0.9%, 2.3%, i, 1.95e-08, i
- FC(F)(F)c1cc(CO[C@@H]2CCCN[C@H]2c2ccccc2)cc(C(F)(F)F)c1
 : -0.2%, x, i, 2.9e-09, i

# Continuation:
# The line under a structure holds: AID923, TSHR agonist, A488 fluor, A647 autofl, Resorufin autofl
- COc1ccc(C(=O)N2CCN=C2c2ccccc2)cc1OC
 : -1.0%, 1.0%, x, x, x
- CCCC(=O)Nc1ccc(NC(=O)c2cccc(OC)c2)nc1
 : -0.1%, -2.4%, i, 3.6e-09, i
- CN1C(=O)c2ccccc2C(C(=O)NCc2ccco2)C1c1c[nH]c2ccccc12 (centres undefined)
 : 0.6%, 5.9%, i, 2.55e-08, i
- C=CCSc1nc2ccccc2n1Cc1nnc(-c2cccs2)o1
 : 1.5%, u, i, 2.26e-08, i
- Cc1ccc2oc(=O)c3cnn(CC(=O)N(CCCN4CCOCC4)Cc4ccco4)c3c2c1
 : -2.0%, 10.2%, x, x, x
- N#C/C(=C\N1CCNC1=S)C(=O)c1ccc2ccccc2c1
 : 2.8%[11.5 µM], 12.5%[11.4 µM], i, 2.71e-08, i
- O=C1CC(C(=O)N(c2ccc(F)cc2)C(C(=O)NC2CCCC2)c2ccccn2)CS1 (centres undefined)
 : 1.6%, -7.0%, i, 1.93e-08, i
- O=C(Cn1cnc2c(nnn2-c2ccccc2)c1=O)N1CCC(Cc2ccccc2)CC1
 : 6.2%, -0.5%, x, x, x
- CCC(C(=O)N1CCc2ccccc2C1)n1nc(C)n2c(cc3occc32)c1=O (centres undefined)
 : 2.1%, 18.2%, x, x, x
- O=C1NC(=O)C2C3c4ccccc4C(c4ccccc43)C12 (centres undefined)
 : 0.0%, 1.6%, i, 5.5e-09, i
- CCc1ccc(N2CC(C(=O)OCC(=O)Nc3cc(C)on3)CC2=O)cc1 (centres undefined)
 : 0.4%, 6.0%, i, 1e-09, i
- O=c1c2ccccc2nnn1CSc1ncnc2ccccc12
 : -1.6%, u, i, 2.7e-09, i
- CCCN(CC1CC1)S(=O)(=O)c1ccc(S(N)(=O)=O)cc1
 : -3.2%, 13.7%, x, x, x
- CN(C)CCCN1C(=O)C(=O)/C(=C(/O)c2ccccc2)C1c1ccccn1 (centres undefined)
 : x, x, i, 1.52e-08, i
- O=C(O)CCC(=O)N1CCc2cc(S(=O)(=O)NC3CCCC3)ccc21
 : 1.9%, u, i, 1.74e-08, i
- CCC(=O)Nc1cccc(NC(=O)COc2ccc(OC)cc2)c1
 : -1.1%, -4.1%, i, 5.9e-09, i
- C[C@@H](NCc1cc(Br)cc2[nH]c(=O)c(=O)[nH]c12)P(=O)(O)O
 : 1.3%, -10.1%, x, x, x
- COc1cc(C2NC(C(=O)O)CS2)ccc1OCc1ccccc1C#N (centres undefined)
 : 0.0%, 5.4%[11.4 µM], i, 5.6e-09, i
- Cc1ccc(C2/C(=C(/O)c3ccc(Cl)cc3)C(=O)C(=O)N2CC2CCCO2)o1 (centres undefined)
 : 0.5%, -5.2%, x, x, x
- CCOC(=O)c1sc(C)c(C(N)=O)c1NC1=NCCCCC1
 : 0.4%, 2.6%, i, 4.89e-08, i
